# Screens: PubChem, several laboratories
# B2AR ag = human beta-2 adrenergic receptor agonism by FAP; actives 0.43% (n = 340,000); Am2.2-beta2AR cells, FAP receptor internalization, flow cytometry; reference of the scale not given here; P07550; response, % (test concentration not listed);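 active = response above a set limit, near 3 SD of response in nonfluorescent compounds, cut at about 42% in these data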;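 note: stock transfer was 100 nL into about 11 µL; a reference agonist was the positive control; negative values mostly stem from fluorescent compounds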
# Target sequence (P07550 whole entry, looked up): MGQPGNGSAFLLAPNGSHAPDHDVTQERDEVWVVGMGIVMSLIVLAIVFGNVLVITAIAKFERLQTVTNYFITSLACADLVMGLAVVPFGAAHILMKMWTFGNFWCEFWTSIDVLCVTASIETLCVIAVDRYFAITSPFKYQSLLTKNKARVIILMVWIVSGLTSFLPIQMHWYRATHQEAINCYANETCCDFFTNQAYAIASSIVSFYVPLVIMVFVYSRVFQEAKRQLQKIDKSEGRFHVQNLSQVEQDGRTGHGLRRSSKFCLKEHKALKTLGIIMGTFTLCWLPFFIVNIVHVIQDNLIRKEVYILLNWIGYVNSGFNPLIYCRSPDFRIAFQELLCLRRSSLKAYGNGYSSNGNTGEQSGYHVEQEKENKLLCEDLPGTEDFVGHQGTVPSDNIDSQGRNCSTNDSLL
# rRNA inh HTS = inhibitors of bacterial rRNA selective over humanized ribosomes; E. coli WT GFP vs humanized-ribosome RFP mutants, fluorescence, 24 h; stronger effect = lower value; DMSO median 0, no signal -100; actives 1.6% (n = 350,000); GFP signal change (wild-type ribosome), % (test concentration not listed);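 active = significant combined selectivity score with lowered wild-type GFP, culture density cut under 30%, mutant RFP and density less affected; inactive = any of these conditions unmet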; note: one replicate is shown; some compounds called inactive have numbers as strong as hits
# rRNA inh HTS OD600 = also measured in rRNA inh HTS; calls as there; OD600 change, %; measured here: OD600 growth;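 optical density of the mix in the first replicate; 0 = DMSO median and -100 = no signal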
# rRNA inh HTS RFP = second read-out of rRNA inh HTS, no call of its own (marks repeat the call); RFP signal change, %; measured here: RFP humanized mutant strains;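 first replicate; 0 = DMSO median and -100 = no signal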
# * hit, by the source's call.
B2AR ag	rRNA inh HTS	rRNA inh HTS OD600	rRNA inh HTS RFP	compound
46*	-14	-28	17	CCCCNc1c(-c2ccc(-c3ccc(OC)cc3)c(OC)c2)nc2ccccn12
-2	13	4	-0.5	C[C@@H]1CN(S(=O)C(C)(C)C)[C@@H](CCO)/C1=C\CCO (stereo partly specified)
2	23	12	11	COc1cc(Cl)c(CNC[C@H]2O[C@@H](n3ccc(=O)[nH]c3=O)[C@H](O)[C@@H]2O)c(Cl)c1O
6	9	3	-0.1	O=C(NNS(=O)(=O)c1ccc(Br)cc1)c1csnn1
-6	-3	0	-3.6	CCN1C[C@@H]2[C@@H]3C(=O)N(C)C(=O)[C@@H]3[C@](Cc3ccccc3)(C1=O)N2C(=O)c1ccc(Cl)cc1
-1	-2	8	-1.0	CCc1ccc(C(=O)NNC(=O)c2cccc(S(=O)(=O)N3CCN(C)CC3)c2)cc1
1	3	-7	1.1	F[B-](F)(F)c1cnc2ccccc2c1
-2	1	5	-0.2	CC(C)C[C@@H](CNCC(=O)[C@H](CC(C)C)NC(=O)c1[nH]cnc1C(=O)N[C@H](CN)CC(C)C)NC(=O)c1nc[nH]c1C(=O)N[C@@H](CC(=O)O)C(=O)O
9	7	8	2.1	Cc1ccccc1OCC(=O)NNC(=O)C1CC(=O)N(c2ccc3c(c2)OCCO3)C1 (stereo unspecified)
-3	-11	-9	1.3	O=C1CCC(C2CCc3cc(O)ccc3C2)C1 (stereo unspecified)
11	0	-24	5.9	O=C(CNCc1ccc(Cl)cc1)Nc1cc(S(=O)(=O)N2CCCC2)ccc1Cl
15	5	-5	3.3	COc1ccc(C(CNC(=O)c2cc(S(=O)(=O)Nc3cccc(C)c3)ccc2C)N2CCOCC2)cc1 (stereo unspecified)
9	-52	-81	-18	C#CC1(O)CCC2C3CCc4cc(O)cc(C)c4C3CCC21C (stereo unspecified)
-5	-3	-4	-1.3	COCC(=O)n1nc(-c2ccccc2)nc1NCc1ccccc1
1	0	6	-0.4	Cc1cc(Br)ccc1NC(=O)CN(C)C(=O)c1cccc(S(=O)(=O)N2CCN(C)CC2)c1
-1	10	11	-0.9	NC(=O)C1=C(N=C2CCCCC2)CCCC1
2	0	-4	1.9	CCOc1cc(C(=O)CCC(=O)OCC(=O)Nc2ccc(F)cc2)ccc1O
3	-6	-5	1.3	Cc1noc(C)c1C(=O)Nc1cc(S(=O)(=O)N2CCCCC2)ccc1N(C)C
8	1	-5	1.2	Cc1cc2c(cc(C(=O)OC(C)C(=O)NCc3ccc(F)cc3)n2C)o1 (stereo unspecified)
-13	3	9	1.5	CC1C(=O)C(C)C(c2ccccc2)N(N=O)C1c1ccccc1 (stereo unspecified)
7	1	2	-0.9	CCOC(=O)N1CCN(C(=O)CSc2ncnc3sccc23)CC1
10	-22*	-6.8*	0.4*	CC(=O)c1ccc(-c2c(C)cc3oc(=O)cc(-c4ccccc4)c3c2C)cc1
5	11	7	-2.8	COc1ccccc1C(=O)NCCC(=O)N1CC(C)OC(C)C1 (stereo unspecified)
-86	-41*	-31*	-8.7*	O=C1OC(c2ccc3ccccc3c2O)(c2ccc3ccccc3c2O)c2ccccc21
6	-3	-1	0.1	CCOC(=O)[C@H]1[C@H]2COc3ccc(Br)cc3[C@H]2N2C(=O)CN(CCc3c[nH]c4ccccc34)C(=O)[C@@]12C
-3	-7	-3	-7.7	O=C(NC1CC1)c1cc(Cl)nc2ccccc12
-10	7	9	-1.5	Cn1c(=O)c2[nH]c(NN=Cc3ccc(F)cc3)nc2n(C)c1=O
1	2	14	1.4	OCCNCc1cccc(-c2ccccc2)c1O
5	9	14	-2.2	CCN(CC(=O)Nc1ccc2c(c1)OCCO2)C(=O)c1cc(S(=O)(=O)N2CCOCC2)ccc1F
5	-29*	-20*	-1.8*	COc1cc2c(c(OC)c1OC)C(=O)C(=Cc1ccccc1)O2

# Given field by field: entries from further up.
CCOC(=O)N1CCN(C(=O)CSc2ncnc3sccc23)CC1
  B2AR ag: 7	rRNA inh HTS: 1	rRNA inh HTS OD600: 2	rRNA inh HTS RFP: -0.9

CC(=O)c1ccc(-c2c(C)cc3oc(=O)cc(-c4ccccc4)c3c2C)cc1
  B2AR ag: 10	rRNA inh HTS: -22*	rRNA inh HTS OD600: -6.8*	rRNA inh HTS RFP: 0.4*

COc1ccccc1C(=O)NCCC(=O)N1CC(C)OC(C)C1 (stereo unspecified)
  B2AR ag: 5	rRNA inh HTS: 11	rRNA inh HTS OD600: 7	rRNA inh HTS RFP: -2.8

O=C1OC(c2ccc3ccccc3c2O)(c2ccc3ccccc3c2O)c2ccccc21
  B2AR ag: -86	rRNA inh HTS: -41*	rRNA inh HTS OD600: -31*	rRNA inh HTS RFP: -8.7*

# Next section
B2AR ag	rRNA inh HTS	rRNA inh HTS OD600	rRNA inh HTS RFP	compound
-8	4	7	-2.0	O=C(COC(=O)c1ccc(F)c(S(=O)(=O)N2CCOCC2)c1)c1ccc(Br)cc1
-7	0	0	-0.7	c1ccc(-c2cn3ccccc3n2)cc1
-4	-11	0	2.6	CC(C)N(C(=O)[C@H]1C[C@H](CC(=O)NCC23CC4CC(CC(C4)C2)C3)C(=O)N2CCc3c([nH]c4cc(CCC(=O)N(C)C)ccc34)[C@]12C)C(C)C
-2	3	7	-2.5	CCOC(=O)C1CCN(c2c(N3CCN(c4ccccc4OC)CC3)c(=O)c2=O)CC1
-13	-2	7	-0.9	CN(C(=O)c1cccc(NC(=O)Cc2ccc(NC(=O)C3CCN(C(=O)C4CCCC4)CC3)cc2)c1)C1CC1
0	4	7	-1.0	NS(=O)(=O)c1ccc(NC(=O)CCCCCN2C(=O)c3ccccc3C2=O)cc1
20	-35	-36	-9.3	OC(c1ccccc1)(c1ccccc1)c1nccc2ccccc12
-1	-10	-11	-1.1	CCCCCCCCCC(=O)N[C@@H]1c2cc(OC)c(OC)cc2C[C@H]1O
-18	2	8	-3.0	S=C1SCCN1Cc1ccccc1
2	-5	11	2.2	N=c1c(S(=O)(=O)c2ccc(Br)cc2)cc2c(=O)n3ccccc3nc2n1CCN1CCOCC1
-9	-13	1	-2.0	CC(C)Cn1cnc2c(SCc3ccc(Cl)cc3)nc(N)nc21
-3	-1	4	0.1	COC(=O)c1ccc(COC(=O)CCNS(=O)(=O)c2ccc(C)c(C)c2)cc1
1	3	3	-1.7	C#CCOCCOCCOCCNc1nc(N2CCN(C(=O)[C@H](C)n3cc(CCC(=O)O)nn3)CC2)nc(N2CCN(C(=O)[C@H](Cc3ccc(O)cc3)n3cc(CCO)nn3)CC2)n1
20	20	12	12	Oc1ccc(C[C@H]2CNC(=S)N2CC2CCCN2C[C@H](Cc2ccccc2)N2C[C@H](Cc3ccc(O)cc3)N(CCc3ccccc3)C2=S)cc1 (stereo partly specified)
6	-3	-5	2.0	COc1ccc(OCCN2CCN(S(=O)(=O)c3ccccc3C#N)CC2)cc1
-2	-29*	-4.2*	5.4*	Nc1nn2c(-c3ccccc3)cc(=O)[nH]c2c1N=Nc1ccc(Br)cc1
-10	20	13	0.7	COc1cc2c(cc1OC)[C@@H](NC(=O)C(C)C)[C@H](O)C2
4	-11	-19	5.1	CSc1ncccc1C(=O)OCC(=O)Nc1cccc(S(=O)(=O)N2CCOCC2)c1
0	-5	-13	-3.5	O=C(NNC(=O)c1ccncc1)Nc1cc(Cl)ccc1Cl
-5	14	27	3.3	COc1c(NC(C)=O)c2c(c([N+](=O)[O-])c1OC)C(=O)OC2
2	12	8	-1.3	CCOc1ccc(NC(=O)CN(C)C(=O)C2CC2C)cc1OCC (stereo unspecified)
10	7	7	0.5	CCN(CC(=O)Nc1ccc(OC)cc1)C(=O)c1ccc2c(c1)NC(=O)CS2
27	12	13	3.2	CCOC(=O)Nc1ccc2c(CN3CCN(S(=O)(=O)c4ccccc4F)CC3)cc(=O)oc2c1
-5	14	-1	1.0	Cc1cc(C)c(C#N)c(SCC(=O)N(CCC#N)c2ccc3c(c2)OCCO3)n1
-5	7	-3	0.5	COc1cc(OC)cc(C(=O)NNC(=O)CCNS(=O)(=O)c2ccc(C)c(C)c2)c1
4	5	5	1.3	Cc1ccc(S(=O)(=O)N2CCOCC2)cc1C(=O)N1CCN(S(=O)(=O)c2ccccc2F)CC1
-6	-3	-4	-3.6	CN(CCc1ccccc1)C(=O)c1cccc(NC(=O)Cc2cccc(NC(=O)C3CCCN(C(=O)C4CCCCC4)C3)c2)c1 (stereo unspecified)
-4	13	13	-0.9	O=C(O)CN(CC(=O)O)CC(=O)O
-11	-1	1	1.1	CCOc1ccc(OCCCC(=O)Nc2cc(S(=O)(=O)N3CCOCC3)ccc2N2CCOCC2)cc1
1	3	15	3.9	Nc1nc(N)c2cc([N+](=O)[O-])ccc2n1
4	3	14	-1.9	Cc1ccccc1NC(=O)Cc1nc(COC(=O)c2ccc([N+](=O)[O-])cc2)cs1
-6	1	2	-2.1	Cc1ccccc1OCC(=O)OCC(=O)NC1CCCCCC1
2	-58	-77	-19	CN(C)CCOC1(Cc2ccc(F)cc2)CCC(C(C)(C)C)CC1 (stereo unspecified)
5	9	-16	0.6	NC(CSC1(c2ccccc2)c2ccccc2-c2ccccc21)C(=O)O (stereo unspecified)
4	2	4	-1.2	CC(=O)Nc1cc(=O)c2cccnc2[nH]1
0	1	11	-7.0	O=C(NN=Cc1cccc([N+](=O)[O-])c1)c1cccc2ccccc12
1	2	16	-5.1	CC(=O)c1ccc(-c2cccc(-c3cc(=O)oc4ccc(C(C)(C)C)cc34)c2)cc1
-1	19	22	0.1	COC1=NC2=NCCN2C(OC)=N1
2	18	16	1.2	NS(=O)(=O)c1cccc(NC(=O)COC(=O)Cc2ccc(S(=O)(=O)N3CCOCC3)s2)c1
-9	10	8	-0.1	COc1ccc(C)cc1NC(=O)C1CC(=O)N(CCc2ccc(F)cc2)C1 (stereo unspecified)
0	-10	3	-4.0	COc1ccc2[nH]c3c(c2c1)CCN1C(=O)C(CC(=O)NCCCN(C)C)C[C@H](C(=O)N2CCCCC2)[C@@]31CCc1ccccc1 (stereo partly specified)
-4	16	8	5.5	COc1ccccc1-c1cccc([C@@H]2C[C@H]3[C@@H](CN2)CON3C)c1
9	-14	-11	4.8	CCOC(=O)c1c(C)[nH]c(C)c1C(=O)COC(=O)c1cccnc1SC
-1	0	9	-0.6	Cc1nn(C)c(=S)[nH]c1=S
3	8	15	1.5	CC(C)(C)S(=O)N1Cc2cc(=O)n(Cc3ccccc3)cc2[C@H]1CCO (stereo partly specified)
-2	2	8	2.8	CCN(C[C@H]1N[C@@](Cc2ccccc2)(C(=O)OC)[C@H]2C(=O)N(C)C(=O)[C@@H]12)C(=O)c1ccc(F)cc1
3	5	4	-0.1	CCCn1c(N)c(C(=O)COC(=O)CNC(=O)c2ccccc2OCC)c(=O)[nH]c1=O
3	5	6	7.7	C[C@]12c3[nH]c4cc(-c5ccco5)ccc4c3CCN1C(=O)[C@@H](CC(=O)NCc1ccco1)C[C@@H]2C(=O)N1CCCCC1
5	3	-4	1.4	CC[C@H](C)[C@H]1CNC(=S)N1CC1CCN(CCC(C)(C)C)CC1
0	11	3	5.2	CCN(C[C@H]1N[C@@](CC)(C(=O)OC)[C@H]2C(=O)N(C)C(=O)[C@@H]12)C(=O)Nc1ccccc1
-1	9	11	2.1	NC(=O)c1ccc(OCc2ccccc2)nc1
2	2	9	-0.4	CCCCN(C(=O)c1ccc(S(=O)(=O)N(C)c2ccccc2)cc1)c1c(N)n(CCC)c(=O)[nH]c1=O
10	10	12	-1.8	COc1ccc(/C=C/C(=O)OCC(=O)N2CCN(S(=O)(=O)c3ccc(C)cc3C)CC2)cc1OC
2	-2	-4	-0.1	O=S1(=O)c2ccc(Br)cc2N2CCC[C@H]2CN1Cc1ccccc1
-4	7	7	1.5	CC1CCN(C(=O)CN2C(=O)NC3(CCCc4ccccc43)C2=O)CC1 (stereo unspecified)
-3	-17	-3	-3.1	C=CCCC(=O)N1C[C@H]2CON(C)[C@H]2C[C@H]1c1cccc(Nc2ccccc2)c1
2	-9	2	-4.1	O=C(c1ccccc1NS(=O)(=O)c1ccc([N+](=O)[O-])cc1[N+](=O)[O-])N1O[C@@H]2C=C[C@H]1C2
-2	6	6	-0.1	Cc1c(C(=O)O)sc(S(=O)(=O)N2CCN(C(=O)CC(C)c3ccccc3)CC2)c1C(=O)O (stereo unspecified)
-3	26	16	1.1	CN1C[C@@H]2[C@@H]3C(=O)N(C)C(=O)[C@@H]3[C@](C)(C1=O)N2C(=O)c1ccc(C(F)(F)F)cc1
-2	4	2	-1.8	Cc1ccccc1OCC(=O)OCC(=O)c1cc(C)n(C2CC2)c1C
-14	6	-6	-1.9	O=[N+]([O-])c1ccc(O)c(CNCc2ccccc2)c1
0	-21*	-14*	-1.3*	O=S1(=O)c2ccccc2C(O)(c2ccccc2)c2ccccc21

# Reformatted: entries from further up.
Compound | B2AR ag | rRNA inh HTS | rRNA inh HTS OD600 | rRNA inh HTS RFP
NC(CSC1(c2ccccc2)c2ccccc2-c2ccccc21)C(=O)O (stereo unspecified) | 5 | 9 | -16 | 0.6
CC(=O)Nc1cc(=O)c2cccnc2[nH]1 | 4 | 2 | 4 | -1.2

# An excerpt, so the mix of outcomes need not match the whole.
